gsp antag: gsp mutant antagonism; actives 0.4% (n = 340,000); Potency, µM (top dose mostly 76.9 µM), without a hit: top-dose activity change, negative = inhibition, hits mostly inhibitors; gsp-mutant cells, cAMP HTRF, 30 min; control for the full effect not named in the record; AID 624288; active = falling curve of any shape with a large fitted effect; inconclusive = falling curve, mostly with a smaller effect; inactive = flat or rising curve; cell line not stated here;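 also: intracellular cAMP measured with PDE inhibitor Ro 20-1724 present during compound exposure; potency is read from the fitted curve at half-maximal effect; % is scaled to controls: 0 for no effect and ±100 for the full control effect; nearly all actives have a fitted effect of over 65% in size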
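G418-selected cells were plated in DMEM/10% FBS for 16-24 h at 37C, then treated with compounds plus the PDE inhibitor […] (300 uM solution added) for 30 min at 37C. Intracellular cAMP was measured by HTRF after 30 min lysis at room temperature.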
ClpP mod: qHTS Assay for Activators of ClpP; purified B. subtilis ClpP, FRET peptide cleavage, 20 min; Potency, µM (top dose mostly 57.5 µM), for inactives: at the highest dose activity change, negative = active; actives 1.9% (n = 340,000); active = well fitted falling curve with a large enough effect; inconclusive = small, poorly fitted or top-dose-only effect; inactive = no such curve, though single readings can be large or run the other way; also: potency is read from the fitted curve at half-maximal effect; the source files actives as falling curves though it sought activators and does not explain the sign; nearly all actives have a fitted effect of over 65% in size; many hits overshoot -100%
Target sequence (P80244 whole entry, looked up): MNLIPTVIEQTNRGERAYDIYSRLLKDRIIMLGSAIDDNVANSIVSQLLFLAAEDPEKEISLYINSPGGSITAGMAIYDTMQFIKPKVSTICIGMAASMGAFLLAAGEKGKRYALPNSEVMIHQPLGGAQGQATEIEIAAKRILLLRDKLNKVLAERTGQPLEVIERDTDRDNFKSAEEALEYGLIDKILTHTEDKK
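Purified B. subtilis ClpP, 10 microg/mL final in Tris/HCl pH8 with KCl, BSA, glycerol and Tween-20, cleaved an Abz/nitrotyrosine-quenched decapeptide. Fluorescence (ex 320, em 430) was read at 0 and 20 min at room temperature. Delta was normalized to 5.8 microM ADEP and DMSO/no-enzyme controls.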
gsp agonist: gsp mutant agonism; gsp mutant cells, cAMP HTRF, 30 min; control for the full effect not named in the record; Potency, µM (doses to about 76.9 µM), for the others: at the top dose activation (cAMP increase), hits mostly activators; actives 0.13% (n = 340,000); active = well fitted activation curve with a large enough effect; inconclusive = small, poorly fitted or top-dose-only effect, or another doubt; inactive = no such curve, though single readings can be large or run the other way; cell line not stated here;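 also: phosphodiesterase inhibitor Ro 20-1724 added with compounds to block cAMP breakdown; potency is read from the fitted curve at half-maximal effect; nearly all actives have a fitted effect of over 60% in size; about a fifth of the inactives were tested at one dose only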
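Cells in DMEM/10% FBS with G418 were pretreated with compounds in DMSO plus […] (300 uM stock) for 30 min at 37C. cAMP was measured by HTRF (cAMP-d2 plus anti-cAMP antibody-K) after 30 min at room temperature.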
Sfp inh: blocks B. subtilis Sfp PPTase activity; actives 3.5% (n = 310,000); Potency, µM, without a hit: max response, negative = inhibition, actives largely listed as inhibitors; Biochemical Sfp PPTase activity, qHTS; active = well fitted inhibition curve with a large enough effect; inconclusive = small, poorly fitted or top-dose-only effect, or another doubt; inactive = no such curve, though single readings can be large or run the other way;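 also: the enzyme is Sfp with the accession as filed and its product quenches rhodamine fluorescence; potency is read from the fitted curve at half-maximal effect; 0% = enzyme reaction without inhibitor and -100% = no enzyme wells; top concentration of the series not given in the record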
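After 15 min at room temperature with compound, 15 nM Sfp received 5 uM rhodamine-CoA plus 12.5 uM BHQ-2-ybbR (50 mM Hepes pH 7.6, 10 mM MgCl2). Rate came from the fluorescence difference over 30 min, ex 525/em 598 nm.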
Menin MLL FP FL: inhibitors of human menin-MLL interaction, wild-type MLL peptide | AID 1766 | Fluorescence polarization, fluorescein-MLL peptide displacement from menin | 290,000 tested, under 10 active | FP activity change, % at 61.4 µM; inconclusive = falling polarisation curve, or a change in total fluorescence; inactive = total fluorescence flat and polarisation flat or rising; no compound was filed as active; the % refers to the polarisation; negative = inhibition;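 also: % of control where 0% means no effect; inhibitors lower the polarisation; unlabelled MLL peptide was the positive control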
PINK1 expr mod: PINK1 expression modulation; PINK1 immunofluorescence, high-content cytometry, 24 h; AID 624263; actives 0.2% (n = 410,000); Potency, µM (series often up to 76.6 µM), for the others: top-dose activation (PINK1 increase), usual class: activators; active = well fitted activation curve with a large enough effect; inconclusive = small, poorly fitted or top-dose-only effect; inactive = flat fitted curve, though single readings scatter; cell line not stated here;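 also: potency is read from the fitted curve at half-maximal effect; % of control where 0% means no effect; nearly all actives have a fitted effect of over 65% in size; a mitochondrial uncoupler was the plate control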
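PINK1 protein level read as immunofluorescence by microplate cytometer in a fixed, stained stable cell line after 24 h exposure to five compound concentrations, with CCCP as control.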
D2 ag: human D2 receptor agonism in beta-arrestin assay | P14416 | DiscoveRx PathHunter D2 beta-arrestin, luminescence, 90 min; 100% = 57 uM dopamine signal | activation, % (test concentration not listed) | actives 0.084% (n = 360,000) | AID 624465; in the data active = activation above about 40%; inconclusive = about 15% to 40%; inactive = below about 15%; also: compound concentration not given in the record; the text of the record calls up to 30% inactive
Target sequence (P14416 whole entry, looked up): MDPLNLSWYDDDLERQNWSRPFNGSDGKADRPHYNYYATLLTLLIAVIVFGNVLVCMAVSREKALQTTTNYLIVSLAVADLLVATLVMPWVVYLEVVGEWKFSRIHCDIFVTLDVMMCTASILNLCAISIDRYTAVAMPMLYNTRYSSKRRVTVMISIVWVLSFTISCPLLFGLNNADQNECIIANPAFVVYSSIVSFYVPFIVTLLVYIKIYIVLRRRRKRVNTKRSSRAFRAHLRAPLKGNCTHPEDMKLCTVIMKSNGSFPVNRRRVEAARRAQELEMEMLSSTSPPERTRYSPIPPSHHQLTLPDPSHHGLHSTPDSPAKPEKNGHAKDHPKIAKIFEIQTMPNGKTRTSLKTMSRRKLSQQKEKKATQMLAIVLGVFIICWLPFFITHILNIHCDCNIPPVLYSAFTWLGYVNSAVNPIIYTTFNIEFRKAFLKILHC
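DiscoveRx PathHunter D2 beta-arrestin cells (2,100/well) attached overnight, then compound-stimulated 90 min at 37 C in HBSS/10 mM HEPES/0.1% Tween-20 buffer; beta-galactosidase complementation read by luminescence after 1 h at ambient temperature. Dopamine 57 uM final (EC100) as control.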
An asterisk follows results filed as active; ? = inconclusive; . = not tested or not shown; [ ] = remark or other dose.

SMILES	gsp antag	ClpP mod	gsp agonist	Sfp inh	Menin MLL FP FL	PINK1 expr mod	D2 ag
Cc1ccc(C(=O)C(C)OC(=O)C2CCN(c3ccc(C(F)(F)F)cn3)CC2)cc1C (stereo unspecified)	-2%	-2.5%	-30%	.	.	20%	-1.5
C=CC[C@H](CC(=O)N(CCO)Cc1ccccc1)C(=O)N[C@H](C)COC(=O)[C@@H](CC=C)Cc1ccc(F)cc1	-13%	0.8%	.	.	.	-0.4%	-0.7
O=C(Nc1nnc(CCN2CCCCC2)s1)c1ccc(Cl)cc1Cl	-3%	-0.6%	-5%	5%	1.0	-0.7%	2.6
C=CCNC(=O)CN(c1ccccc1OCC)S(=O)(=O)c1ccc(C)cc1	-7%	-1.4%	?	10%	5.5	-0.4%	-1.4
CCC(C)C(NC(=O)c1ccc(Cl)cc1)C(=O)Nc1cccnc1 (stereo unspecified)	-6%	.	27%	7%	-5.8	0.9%	-4.9
N#Cc1cn(-c2ccccc2)nc1-c1ccccc1	4%	2.3%	-10%	10%	-0.4	.	4.6
Clc1ccc(-c2cc(CN3CCOCC3)no2)cc1	12%	.	14%	5%	6.9	4.3%	-1.6
C[C@H](O)[C@@H]1CN2CCc3c([nH]c4ccccc34)[C@@H]2C[C@@H]1N(C)C(=S)Nc1ccc(C#N)cc1	.	-29%	.	.	.	-1.6%	1.8
Cc1ccc(CNC2=NCCCCC2)n1C	-8%	3.8%	0%	5%	7.2	-0.2%	-2.3
CCOC(=O)c1ccc2c(c1)nc(COc1ccc(OC)cc1)n2CC	2%	-0.9%	24%	1%	-1.1	1.0%[38.3 µM]	1.3
CC(/C=C/c1ccc(O)cc1)=N/O	-1%	-7.7%	7%	-15%	-3.5	-1.0%	-0.9
O=C(Nc1ccccc1)N1CCC(c2nc(-c3ccc(S(=O)(=O)N4CCOCC4)cc3)no2)CC1	-9%	-1.2%	9%	5%	-0.1	13µM*	1.8
CC(=O)N(C)c1ccc(NC(=O)Nc2ccc(C)c(C)c2)cc1	-1%	.	-24%	-3%	-4.9	5.3%	-0.1
Cc1noc(C)c1NC(=O)Nc1cccc2c1O[C@H](CN(C)C(=O)Nc1ccc(C(F)(F)F)cc1)[C@@H](C)CN([C@H](C)CO)C2=O	-9%	-0.4%	0%	.	.	1.7%	2.5
COc1cc(/C=N/NC(=O)c2ccc(Cl)cc2)ccc1OCC(=O)N1CC(C)OC(C)C1 (stereo unspecified)	0%	-2.6%	-17%[15.4 µM]	3%	-0.7	-0.1%	-4.2
COc1cccc(OC)c1C1=CC(=O)C[C@H](c2ccc3c(c2)OCO3)C1	4%	-5.9%	-18%	.	.	1.5%	-6.0
CCCC12CN3CCN(CC(C3)/C1=N\NC(=O)Nc1ccccc1)C2	13%	1.6%	-2%[15.4 µM]	21%	.	0.2%	1.8
FC(F)(F)c1cc(-c2ccco2)nc(-n2nc(C(F)(F)F)cc2C2CC2)n1	-5%	28µM*	-4%	14%	-1.6	-0.9%[38.3 µM]	-5.0
CCN1/C(=C\C(=S)Nc2ccccc2)Sc2ccccc21	-11%	1.2%	16%[15.4 µM]	20µM*	-1.8	?	-4.3
CCN(CC1CCCO1)C(=O)c1cc(COc2ccc(F)cc2F)on1 (stereo unspecified)	-13%	2.4%	-19%	10%	3.0	?	-3.0
O=C(COC(=O)c1ccc(Br)o1)NCc1ccc2c(c1)OCO2	7%	-1.5%	-8%	.	.	-0.4%	-0.8
CC(=Nc1ccccc1)C1=C(O)CCCC1=O	-2%	.	-1%[15.4 µM]	14%	5.3	1.7%	-1.5
COc1ccc(NS(=O)(=O)N2CCOCC2)cc1	14%	0.1%	-24%	8%	.	-1.3%	-3.3
CC(C)c1ccc(NC(=O)CN2CCN(c3ccccn3)CC2)cc1	-13%	-3.9%	?	5%	-0.1	-0.6%	14
Cc1ccc(Cn2ccc(NC(=O)CCSc3nc(-c4ccco4)cc(C(F)(F)F)n3)n2)cc1	2%	-3.0%	2%	20%	9.3	6.4%	-1.7
Cc1ccc(NC(=O)c2ccc(Cl)c(S(=O)(=O)N3CCCC3)c2)nc1	-3%	-1.6%	-35%[inhibitor]	.	.	1.7%	-0.6
COc1cccc2sc(N)nc12	-7%	-1.9%	.	.	.	1.3%	-5.2
CC(=O)N/C(=C/c1ccc2c(c1)OCO2)C(=O)NCC(=O)O	-8%	-5.0%	-2%	-5%	-2.0	-0.8%	-1.3
COCc1cc(C)nc(Oc2ccccc2)c1C#N	-2%	.	3%[15.4 µM]	5%	3.0	6.0%	-1.0
CCCCNC(=O)c1cn(CC)c2ccc(S(=O)(=O)N3CCCCCC3)cc2c1=O	?	1.2%	?	-4%	.	3.3%	1.3
CCOCC(=O)N(CC)Cc1ccccc1	8%	.	-41%[inhibitor]	18%	-1.3	-0.2%	-0.6
Cc1ccc(Nc2nnns2)cc1	2%	?	0%	6.3µM*	6.2	0.6%	-0.1
CC(=O)Nc1ccc(S(=O)(=O)N[C@@H](C)C(=O)N(C)Cc2cccs2)cc1	0%	0.3%	-57%[inhibitor]	.	.	-1.0%	-0.2
O=C(O)c1ccc(N/N=C/c2ccc(OC(=O)c3cccc(Cl)c3)cc2)cc1	-19%	-0.7%	29%	40µM*	?	0.1%	-0.5
COc1ccc(NC(=O)C23CCC(C2)C(C)(C)C3=O)cc1 (stereo unspecified)	-1%	-1.4%	-33%	13%	-0.5	1.4%	-2.3
O=C(Nc1ccccc1)C1=C[C@H](c2csc3ccccc23)C[C@H](OCc2ccc(CO)cc2)O1	-23%	-2.6%	-17%	14%	5.3	-0.1%	-0.3
COc1ccc(C(=O)Nc2ccc(S(=O)(=O)N3CCN(C)CC3)cc2)cc1	6%	.	?	.	.	1.1%	-3.4
Nc1nonc1-n1nnc(C(=O)N/N=C/c2ccc(O)cc2)c1CN1CCCCCC1	-3%	0.0%	-69%[inhibitor]	.	.	6.8%	-1.4
O=c1ncn(-c2cccc([N+](=O)[O-])c2)c2ccccc12	10%	.	1%[15.4 µM]	.	.	1.7%	1.8
Cc1ccc(CNC(=O)C2CC(c3ccccc3C(F)(F)F)=NO2)o1 (stereo unspecified)	7%	-1.9%	-22%	.	.	7.5%	1.6
CCCCCn1nc(C(=O)N(CC(C)C)c2c(N)n(CCCC)c(=O)[nH]c2=O)c2ccccc2c1=O	-10%	-1.0%	-7%[15.4 µM]	.	.	-1.3%	-6.6
Cc1cc(OCc2cc(C(=O)N(C)CCCN3CCOCC3)no2)cc(C)c1Cl	-2%	-0.1%	8%	-8%	-2.6	0.4%	-20
CC(=O)Nc1ccc(Oc2cnccn2)cc1	8%	-5.8%	-31%[inhibitor]	20%	4.1	-0.1%	3.0
CCc1ccc(CNC(=O)CCC(=O)n2ncc3cc(C)ccc32)cc1	5%	-2.8%	?	-17%	3.0	3.6%	-4.8
CC(=O)c1sc(-c2ccccc2)cc1NS(=O)(=O)c1ccccc1	-7%	.	-2%[15.4 µM]	5%	12	15%	-0.1
Cc1ccc(CC(=O)NCc2ccc3c(c2)OCO3)cc1	2%	0.6%	-3%	12%	3.9	0.1%	-4.8
COc1ccc2c(c1)[nH]c1c(=O)n(/N=C/c3ccc(OC)c(CN4CCCCC4)c3)cnc12	-7%	1.4%	5%	6%	-0.2	1.6%	-0.6
CCOc1ccccc1N1C(=O)CC(N(O)c2ccccc2)C1=O (stereo unspecified)	1%	-0.8%	19%	-4%	-1.6	-0.3%	?
O=C1CNC(=S)N1CCCc1ccccc1	4%	-1.2%	1%	11%	7.2	-1.1%	-6.8
C=CCSc1nnc2c(n1)OC(c1c(C)[nH]n(-c3ccccc3)c1=O)Nc1ccccc1-2 (stereo unspecified)	25µM*	0.8%	9%	10%	1.8	2.0%	-0.2
(continued)
SMILES	gsp antag	ClpP mod	gsp agonist	Sfp inh	Menin MLL FP FL	PINK1 expr mod	D2 ag
CCCCCC1CCC(C(=O)NCCN2CCOCC2)CC1 (stereo unspecified)	24%	-0.3%	-5%[15.4 µM]	-8%	.	-1.6%	0.6
Cc1ccc(CN2CCN(C3CCCC3)C(CCO)C2)s1 (stereo unspecified)	9%	-2.4%	-25%	12%	-1.0	0.3%	-3.5
COc1cc(C2NC(=S)NC(C)=C2C(=O)c2ccccc2)ccc1O (stereo unspecified)	-19%	0.3%	27%	-15%	7.3	2.2%	-1.0
COc1ccc(-c2ccnc3nc(N4CCN(c5ccccc5)CC4)nn23)cc1	-1%	1.1%	2%	-29%	-0.9	16%[38.3 µM]	1.4
Nc1c2c(=O)oc(-c3ccccc3)cc2nn1-c1ccccc1	-16%	14µM*	-7%	3%	7.1	11%[38.3 µM]	3.2
CSc1ccccc1OCc1cc(C(=O)NCCN2CCCc3ccccc32)no1	-19%	-11%	-53%[inhibitor]	-3%	-0.8	-0.4%	2.8
CCOc1ccc(CN2CCNC(=O)C2CC(=O)NCc2csc(C(C)C)n2)cc1 (stereo unspecified)	0%	-9.7%	25%	-1%	0.0	-1.3%	1.8
Cc1nc2nc3c(cn2n1)C(=O)CC(c1ccccc1)C3 (stereo unspecified)	0%	4.1%	-3%	0%	?	3.1%	2.0
CN(C)C(=O)N1CCNCC1	6%	1.0%	?	10%	3.2	1.4%	-1.4
O=[N+]([O-])c1cccc(C2=NCCS2)c1	13%	-6.0%	?	1%	1.3	0.2%	-3.2
CN1C(=O)C(=O)/C(=C(/O)c2ccc(Br)cc2)C1c1cccc([N+](=O)[O-])c1 (stereo unspecified)	-7%	1.2%	-6%	18%	-8.6	0.7%	0.8
CCOC1(OCC)C(c2ccc(Cl)cc2)C(C#N)(C#N)C1(OCC)OCC (stereo unspecified)	4%	0.2%	-16%	-5%	-0.2	3.7%	-2.9
Cc1ccc(Oc2nc3ccccn3c(=O)c2/C=C(\C#N)C(=O)Nc2c(C)n(C)n(-c3ccccc3)c2=O)c(C)c1	14%	-11%	7%	?	12	-0.4%	-0.4
COCCn1cnc2c(c1=O)c1nc3ccccc3nc1n2/N=C/c1ccc(OC)c(OC)c1	-13%	.	-2%[15.4 µM]	31%[activator]	-3.9	15%	3.0
